Rce1 inhib = inhibitors of yeast Ras-converting enzyme. 290,000 tested, 0.27% active. Q03530. calls only. yeast membranes, quenched prenylated peptide cleavage fluorescence;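 active = fall in fluorescence gain of 50% or more versus controls, with final raw signal at or below 3038400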;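 note: plate controls were neutral control wells for no effect and wells lacking membranes for full effect; tested at 10 µM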
Target sequence (Q03530 whole entry, looked up): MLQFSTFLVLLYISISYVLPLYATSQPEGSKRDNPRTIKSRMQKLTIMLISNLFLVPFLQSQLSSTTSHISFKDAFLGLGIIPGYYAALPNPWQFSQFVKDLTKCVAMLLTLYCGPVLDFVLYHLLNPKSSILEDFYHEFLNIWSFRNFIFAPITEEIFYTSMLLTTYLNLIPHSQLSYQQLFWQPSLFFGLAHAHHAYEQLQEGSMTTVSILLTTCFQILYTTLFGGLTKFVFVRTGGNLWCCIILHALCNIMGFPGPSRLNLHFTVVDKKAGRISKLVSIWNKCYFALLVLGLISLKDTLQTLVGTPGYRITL
CSC inhib = cancer stem cell inhibition. cancer stem cell-like cells viability, luminescence. inhibition, % at 7.5 µM. 300,000 tested, 1.1% active;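 active = mean at 75% or more and at least half the replicates too; tested in HMLE shEcad cells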;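 note: 0% = median of negative and 100% = median of positive control wells; the first replicate is given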
HIV Env fusion = inhibitors of HIV Env-mediated cell fusion; HeLa-JRFL Env/CEM21 cell fusion, luciferase; inhibition, % at 12.3 µM; 360,000 tested, 1.1% active; AID 651610;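 active = mean replicate inhibition score of at least 50 and every replicate individually at or above 50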;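 note: 0% = plate neutral controls and 100% = maraviroc near 300 nM; one replicate is shown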
eIF4H FP inh = inhibitors of RNA binding by human eIF4H; Q15056; eIF4H fluorescence polarization binding assay; inhibition, % at 35 µM; 290,000 tested, 0.94% active; AID 2012;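 active = 50% or more with normal probe brightness, or confirmed in later tests; about a fifth of its hits are not listed in these tables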;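 note: calls also rest on retests at 20 µM and on dose response follow-up; 0% = protein and probe with vehicle and 100% = probe without protein; strong numbers were not always called active; many hits fall short of the cut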
UUG fidelity = modulators of start codon recognition fidelity in yeast; S. cerevisiae UUG-firefly luciferase reporter, luminescence/redox ratio; activity score, % at 18.7 µM; 350,000 tested, 0.13% active; AID 602363;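 active = replicate mean at a twofold rise or more, about +100% in these data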;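 note: firefly luciferase made from a UUG start codon reports start codon fidelity; reporter light over untreated wells divided by growth signal over untreated wells; some hits fall short of that in this replicate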
PABP polyA inh = PABP-poly(A) binding inhibition | inhibition, % at 35 µM | P11940 | 290,000 tested, 1% active | PABP-poly(A) RNA binding, fluorescence polarization | AID 2014;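 active = 50% or more with normal probe brightness, or confirmed in later tests; about a fifth of its hits are not listed in these tables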;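 note: calls also rest on retests at 20 µM and on dose response follow-up; controls were probe without protein and protein plus probe with vehicle; some compounds called inactive have numbers as strong as hits; many hits fall short of the cut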
MT1-MMP act inh = MT1-MMP (human) activation inhibition | 360,000 tested, 0.061% active | GFP/RFP ratio change, % at 20 µM | P50281 | HT1080 RFP-PRO-GFP cells, GFP/RFP ratio fluorescence, overnight; percent of plate control window, DMSO zero;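 active = GFP/RFP ratio change of at least 30% with cell ATP level not reduced by more than half and red fluorescence within 50% of control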; note: strong numbers were not always called active
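Test system: HT1080 RFP-PRO-GFP cells; Benchmarks: DMSO and RFP-L50D-GFP cell wells; Timing: cells overnight before dosing, compound overnight, 37 °C, 5% CO2; Compound: one 20 µM compound dose with 1% DMSO; Read-out: GFP/RFP fluorescence ratio.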
MT1-MMP act inh RFP = further read-out of MT1-MMP act inh, marked with its call; RFP signal change, %; measured here: RFP expression control read;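 0 = vehicle wells; hits needed this value within 50% of zero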
The depositor's hits bear a star; i = inactive; x = not tested or not shown. Some of the compounds tested; count on the stated rates, not on these rows.

Results follow in this order: CSC inhib	eIF4H FP inh	PABP polyA inh	HIV Env fusion	MT1-MMP act inh	Rce1 inhib	MT1-MMP act inh RFP	UUG fidelity
[1] CSCCC(NS(=O)(=O)c1ccc(Cl)cc1)C(=O)OCC(=O)c1ccc(F)cc1 (stereo not drawn)
  -15	25	-4	4	-1	i	-1	x
[2] CC(Sc1ncnc2sc(-c3ccccc3)cc12)C(=O)NCC1CCCO1 (stereo not drawn)
  30	x	x	3	2	i	0	9
[3] CCOC(=O)c1cnc2ccccc2c1NCCO
  -6	6	0	x	-3	i	3	-12
[4] CCOC(=O)COc1ccccc1/C=C1/NC(=O)NC1=O
  12	-2	17	14	6	i	6	-10
[5] CCOc1ccccc1N(CC(=O)NC1CCCCC1)S(=O)(=O)c1ccccc1
  x	10	11	25	-2	i	-6	-10
[6] COc1cc(NC(=O)c2n[nH]c(=O)c3ccccc23)cc(OC)c1
  -1	-1	4	-3	2	i	6	-5
[7] C/C(=N\NC(=O)c1ccccc1)c1ccc(N2CCCCC2)cc1
  -3	-1	-13	x	5	i	5	-6
[8] O=C(c1ccccc1)N1CCN(S(=O)(=O)N2CCOCC2)CC1
  0	-1	-5	6	0	i	4	-14
[9] Cc1ccc(/C(=N/Nc2ncnc3ccccc23)C(=O)O)cc1
  -4	6	3	-39	-4	i	1	-34
[10] COC(=O)C1=C(C)Nc2nnnn2C1c1cc(OC)ccc1OC (stereo not drawn)
  x	-1	-6	x	9	i	-2	-3
[11] CC1CN(c2nc3c(c(=O)n(Cc4ccc(Cl)cc4)c(=O)n3C)n2C)CC(C)O1 (stereo not drawn)
  -10	6	5	42	-1	x	-8	12
[12] O=C(Nc1ccc(N2CCOCC2)cc1)c1cnccn1
  -9	-19	-1	32	3	i	2	-75
[13] O=C(NC(=S)NCc1ccco1)c1ccccc1
  28	-2	-3	7	6	i	1	x
[14] CC(=O)N(C(C)=O)C1=C(C#N)C2(CCCCC2)Cc2ccccc21
  -19	0	6	x	0	i	2	12
[15] O=C(Nc1cccc(C(F)(F)F)c1)c1cc(S(=O)(=O)N2CCCCC2)ccc1N1CCOCC1
  19	4	-5	x	-3	i	-1	13

7 compounds out of the list above, sorted by the number in MT1-MMP act inh RFP, rising.
no. | Structure | HIV Env fusion | MT1-MMP act inh | Rce1 inhib | MT1-MMP act inh RFP | UUG fidelity
5 | CCOc1ccccc1N(CC(=O)NC1CCCCC1)S(=O)(=O)c1ccccc1 | 25 | -2 | i | -6 | -10
10 | COC(=O)C1=C(C)Nc2nnnn2C1c1cc(OC)ccc1OC (stereo not drawn) | x | 9 | i | -2 | -3
9 | Cc1ccc(/C(=N/Nc2ncnc3ccccc23)C(=O)O)cc1 | -39 | -4 | i | 1 | -34
14 | CC(=O)N(C(C)=O)C1=C(C#N)C2(CCCCC2)Cc2ccccc21 | x | 0 | i | 2 | 12
8 | O=C(c1ccccc1)N1CCN(S(=O)(=O)N2CCOCC2)CC1 | 6 | 0 | i | 4 | -14
7 | C/C(=N\NC(=O)c1ccccc1)c1ccc(N2CCCCC2)cc1 | x | 5 | i | 5 | -6
4 | CCOC(=O)COc1ccccc1/C=C1/NC(=O)NC1=O | 14 | 6 | i | 6 | -10

Next records
Results follow in this order: CSC inhib	eIF4H FP inh	PABP polyA inh	HIV Env fusion	MT1-MMP act inh	Rce1 inhib	MT1-MMP act inh RFP	UUG fidelity
[16] CC(C)OP(=O)(OC(C)C)C(Nc1cccc(C(=O)O)c1)c1ccccc1 (stereo not drawn)
  -3	-2	-21	2	-13	i	3	5
[17] Cc1cc(NC(=O)CCC(=O)N(CC(=O)NC2CCCC2)Cc2ccccc2Cl)no1
  8	-7	2	x	-3	x	4	41
[18] COc1ccc(Cn2cnc3c4cc(F)ccc4n(C)c3c2=O)cc1
  1	-8	2	12	-2	i	-2	-16
[19] Cc1cccc(C)c1NC(=O)CCCSc1nnc(N)s1
  7	-14	-11	17	-9	i	-3	x
[20] Cn1c(CNC(=O)c2ccc3c(c2)OCO3)nnc1SCC(=O)Nc1ccccc1F
  -7	2	4	-7	0	i	3	-17
[21] CCOC(=O)c1c(S(=O)(=O)NCC(=O)NCc2ccccc2Cl)c(C)n(C)c1C
  -6	-4	-2	10	-1	i	-3	-9
[22] O=C(O)CCC(=O)N1N=C(c2cccs2)CC1c1ccc(Br)cc1 (stereo not drawn)
  -1	-9	2	-3	1	i	3	6
[23] Cc1sc(NC(=O)CSc2nc(N)n(CC(=O)c3ccccc3)n2)c(C#N)c1C
  -18	1	4	x	5	i	-4	-10
[24] CN(C)c1nnc(-c2ccc(Cl)cc2)o1
  3	0	-8	-10	0	i	2	x
[25] Cn1nc(CC(=O)N2CCN(c3ccccc3)CC2)c2ccccc2c1=O
  -8	-3	4	-7	0	x	-8	-8
[26] O=C(COC(=O)COc1ccc(Cl)cc1Cl)Nc1cccnc1Cl
  2	4	5	-27	0	i	2	x
[27] CCCSc1cc(=O)n(-c2ccccc2)nc1C(=O)O
  -18	12	8	-11	1	i	5	-2
[28] CC(C)(C)OC(=O)N[C@H](C(=O)OC(C)(C)C)c1ccc(Br)cc1
  1	x	x	9	1	x	-7	-7
[29] C=CCCC(=O)Nc1nc(C)c(-c2csc(Nc3ccc(Cl)cc3)n2)s1
  99*	14	11	12	2	i	-3	-21
[30] Cn1c(=O)c2ncn(CC(=O)Nc3cccc(-c4nc5ccccc5s4)c3)c2n(C)c1=O
  19	-10	-15	x	3	x	-19	-22
[31] Cc1ccc(Nc2c(-c3ccc(N4CCOCC4)cc3)nc3ncccn23)cc1
  11	-1	6	-14	-3	i	2	-13
[32] CC(=O)N1CCN(S(=O)(=O)c2ccc3c(c2)CCC(=O)N3)CC1
  -8	x	x	x	-1	x	2	-17
[33] CC1CCCN(CCCNC(=O)c2ccc(CS(=O)(=O)c3c(Cl)cccc3Cl)o2)C1 (stereo not drawn)
  -7	-10	-1	0	2	i	1	-3
[34] CC(C)NC(=O)c1cc(C(=O)c2cc(Cl)ccc2O)coc1=N
  3	-3	4	x	-2	i	2	-12

Record cards (already shown). Order of values: CSC inhib	eIF4H FP inh	PABP polyA inh	HIV Env fusion	MT1-MMP act inh	Rce1 inhib	MT1-MMP act inh RFP	UUG fidelity
CC(C)NC(=O)c1cc(C(=O)c2cc(Cl)ccc2O)coc1=N is listed as 3	-3	4	x	-2	i	2	-12
CC1CCCN(CCCNC(=O)c2ccc(CS(=O)(=O)c3c(Cl)cccc3Cl)o2)C1 (stereo not drawn) is listed as -7	-10	-1	0	2	i	1	-3
